D2 ag: agonists of human D2 dopamine receptor (beta-arrestin); P14416; DiscoveRx PathHunter D2 beta-arrestin, luminescence, 90 min; 100% = 57 uM dopamine signal; activation, % (test concentration not listed); 360,000 tested, 0.084% active; AID 624465; in the data active = activation above about 40%; inconclusive = about 15% to 40%; inactive = below about 15%; further: compound concentration not given in the record; the text of the record calls up to 30% inactive
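DiscoveRx PathHunter D2 beta-arrestin cells (2,100/well) attached overnight, then compound-stimulated 90 min at 37 C in HBSS/10 mM HEPES/0.1% Tween-20 buffer; beta-galactosidase complementation read by luminescence after 1 h at ambient temperature. Dopamine 57 uM final (EC100) as control.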
Six1-Eya2 blk: Six1/Eya2 interaction inhibition; activity change, % (no concentration beside the values); 360,000 tested, 0.56% active; AID 651725; Q15475+O00167; AlphaScreen GST-Six1/His-Eya2 binding, biochemical; stronger effect = lower value; control for the full effect not named in the record; in the data active = activity change below about -65%; inconclusive = about -30% to -65%; inactive = above about -30%; further: on the % scale 0 is the no-effect control and ±100 the full control effect; compound concentration not given in the record
Target sequence (O00167 whole entry, looked up): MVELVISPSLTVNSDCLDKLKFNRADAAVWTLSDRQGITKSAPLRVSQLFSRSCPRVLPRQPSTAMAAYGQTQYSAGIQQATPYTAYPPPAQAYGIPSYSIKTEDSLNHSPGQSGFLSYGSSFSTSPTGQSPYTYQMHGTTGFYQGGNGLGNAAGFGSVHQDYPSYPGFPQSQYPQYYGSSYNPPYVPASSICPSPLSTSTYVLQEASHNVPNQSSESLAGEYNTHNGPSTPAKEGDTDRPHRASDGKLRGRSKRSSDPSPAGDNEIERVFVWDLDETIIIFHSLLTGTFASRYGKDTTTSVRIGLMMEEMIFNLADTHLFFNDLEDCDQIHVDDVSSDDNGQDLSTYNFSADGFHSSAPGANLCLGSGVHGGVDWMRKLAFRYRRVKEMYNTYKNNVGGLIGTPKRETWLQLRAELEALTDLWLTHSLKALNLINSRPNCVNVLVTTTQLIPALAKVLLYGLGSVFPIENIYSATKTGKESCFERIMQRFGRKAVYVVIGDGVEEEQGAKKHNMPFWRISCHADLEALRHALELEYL
Target sequence (Q15475 whole entry, looked up): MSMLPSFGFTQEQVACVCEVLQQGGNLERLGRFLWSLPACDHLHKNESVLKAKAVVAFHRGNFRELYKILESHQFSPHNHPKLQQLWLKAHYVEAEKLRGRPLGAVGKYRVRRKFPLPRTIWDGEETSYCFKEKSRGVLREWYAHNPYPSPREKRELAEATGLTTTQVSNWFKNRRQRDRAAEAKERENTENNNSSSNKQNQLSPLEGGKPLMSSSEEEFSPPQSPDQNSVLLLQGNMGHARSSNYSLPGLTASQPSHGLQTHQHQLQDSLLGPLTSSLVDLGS
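AlphaScreen luminescence read after one hour at 37 °C in darkness. Pin-transferred compounds met GST-Six1 and His-Eya2 protein (5X stock 250 nM/500 nM) plus glutathione donor and Ni-chelate acceptor beads (5X, 50 ug/mL).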
CtBP-E1A blk: CtBP/E1A binding inhibition | AlphaScreen GST-E1A/His-CtBP binding, 1536-well; stronger effect = lower value; control for the full effect not named in the record | activity change, % (no concentration beside the values) | 340,000 tested, 0.49% active; in the data active means activity change below about -65%; inconclusive means about -30% to -65%; inactive means above about -30%; further: on the % scale 0 is the no-effect control and ±100 the full control effect; compound concentration not given in the record
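In 5 uL wells, 23 nL compound meets equimolar GST-E1A and His-CtBP (5X stock 125 nM each) for 2 h, 37 °C. Beads (5X, 50 ug/mL) then 1 h, 37 °C, dark.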
TRPML1 ag: agonists of human TRPML1 channel. TRPML1-expressing cells, Ca2+ dye fluorescence, FDSS; host cell line not named in the record; reference of the full effect not given here. 410,000 tested, 0.12% active. Q9GZU1. activation, % (concentration not given with the values). AID 624414; in the data active = activation above about 50%; inconclusive = about 30% to 50%; inactive = below about 30%; further: 0% is about no effect; the text of the record puts the active cut at 80%
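Tet-induced TRPML1-DL cells, 1,500 per well, cultured overnight, were loaded with a no-wash Ca2+ dye for 45–90 min. Calcium fluorescence was recorded on the FDSS for 110 s after compound addition, before the EC80 agonist (4 uM 54-4) was added.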
D2 PAM: potentiates the human D2 dopamine receptor allosterically; P14416; 360,000 tested, 0.23% active; AID 624464; potentiation, % (no concentration beside the values); DiscoveRx D2 beta-arrestin cells, luminescence, 90 min; 100% = 57 uM dopamine signal; active = potentiation of 50% or more; inconclusive = 30% to 50%; inactive = 30% or less;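 further: compound concentration not given in the record; tested on top of an EC20 dose of dopamine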
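PathHunter beta-arrestin assay in DiscoveRx D2 cells. Compounds were added with an EC20 of dopamine (50 nM final) for 90 min at 37 deg C. Luminescence was read 1 h after detection reagent, with 57 uM dopamine as the EC100 control.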
PINK1 modulator: PINK1 expression modulation | Potency, µM (series often up to 76.6 µM), inactives show top-dose activation (PINK1 increase), hits mostly activators | 410,000 tested, 0.2% active | PINK1 immunofluorescence, high-content cytometry, 24 h | AID 624263; active = well fitted activation curve with a large enough effect; inconclusive = small, poorly fitted or top-dose-only effect; inactive = flat fitted curve, though single readings scatter; cell line not stated here;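 further: potency means the concentration at half of the fitted maximal effect; % of control where 0% means no effect; nearly all actives have a fitted effect of over 65% in size; a mitochondrial uncoupler was the plate control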
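Fluorescence from anti-PINK1 antibody, together with nuclear and cell stains, was scanned on a laser-scanning cytometer. Before staining, stable-line cells were incubated 24 hours with compounds at 5 concentrations; primary antibody 12 h at 10 degrees C.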
An asterisk follows results filed as active; ? = inconclusive; . = not tested or not shown; [ ] = remark or other dose.

SMILES	D2 ag	Six1-Eya2 blk	CtBP-E1A blk	TRPML1 ag	D2 PAM	PINK1 modulator
Cc1ccc(Oc2nc3c(c(=O)n(C)c(=O)n3C)n2C)cc1C	-3.5	-1.4	-1.9	1.4	-7.0	-0.7%
N#Cc1cccc(-c2csc(C(O)(c3ccccc3)C(F)(F)F)n2)c1 (stereo unspecified)	-1.2	-1.6	6.4	-0.2	-3.9	?
O=C(COc1ccccc1-c1ccccc1)N/N=C/c1ccccn1	-1.5	10.6	.	2.1	-0.6	7.6%
Cc1ccccc1NS(=O)(=O)c1cc2c3c(c1)C(C)C(=O)N3CCC2 (stereo unspecified)	-3.9	-0.2	-1.8	0.5	-5.8	-0.1%
O=c1c2cc(F)ccc2sn1-c1ccc(F)cc1	-1.6	-1.1	-0.4	1.4	-60.5	?
CS(=O)(=O)n1nc(C(=O)N2CCOCC2)nc1N	-2.9	28.1	29.7	0.2	-12.8	1.4%
COc1cccc(CNC(=O)Cc2ccc(Br)cc2)c1	-1.6	1.9	-9.5	1.6	-4.0	0.8%
CCOc1ccc(-c2nnc(SCC(=O)N3CCNC3=O)o2)cc1	2.1	-0.3	7.7	-0.2	0.0	2.0%
O=C(NCC(c1ccco1)N1CCc2ccccc2C1)c1cccc([N+](=O)[O-])c1 (stereo unspecified)	-2.2	-16.8	-4.0	-0.6	5.1	-0.9%
CC(SCc1ccccc1)C(=O)N/N=C/c1cccs1 (stereo unspecified)	-1.6	3.5	-4.5	2.5	-8.4	1.4%
COc1ccc(C(=O)NCc2ccccc2)cc1S(=O)(=O)N1CCCc2ccccc21	-0.4	-4.7	-2.4	2.0	-19.1	-1.6%
O=C(O)c1nn(-c2ccccc2C(F)(F)F)cc1O	-5.4	16.9	.	-0.3	-12.4	0.9%
O=C(COC(=O)c1cc([N+](=O)[O-])ccc1NCc1ccccc1Cl)NCC(F)(F)F	-6.2	4.9	5.0	1.0	-10.3	2.8%
Cc1cccc(C)c1NC(=O)C(C)Sc1nnc(C)n1CC1CCCO1 (stereo unspecified)	2.2	5.6	3.7	-0.3	-1.0	-0.8%
CC(C)Sc1ncnc2[nH]ncc12	-1.6	4.4	-12.3	0.9	-2.7	-0.3%
CCOC(=O)c1ccc(NC(=O)N2CCN(S(C)(=O)=O)CC2)cc1	-1.3	-0.3	-8.0	-0.2	-10.0	0.3%[38.3 µM]
C=C(C)CSc1nc2ncc(Cl)cc2[nH]1	-2.3	2.7	-2.8	0.3	-5.0	.
Cc1ccccc1CCN(CC(=O)NC1CCCCC1)C(=O)c1csnn1	-7.1	13.6	6.6	-1.2	-6.6	-0.4%
CC(C)c1ccc(-c2nn[nH]n2)cc1	-2.1	2.0	11.1	-0.8	3.4	0.3%[38.3 µM]
CC(=O)c1cccc(NC(=O)Nc2ccc3c(c2)N(C)C(=O)CS3)c1	-0.8	-5.8	-21.0	6.6	-10.8	-0.6%[38.3 µM]
C=CC(=C)CC(NC)c1ccccc1 (stereo unspecified)	-1.9	4.0	12.9	-0.2	-11.9	-0.7%[38.3 µM]
O=C(Nc1cccc(C(=O)O)c1)/C(=C\C=C\c1ccccc1)NC(=O)c1ccccc1	0.6	3.8	1.6	0.2	-3.7	4.4%
CC(/C=C1\SC(=O)N(CC(=O)Nc2cccc(O)c2)C1=O)=C\c1ccccc1	0.4	-11.2	-10.1	0.0	-4.2	6.0%
Cc1nc2ccccn2c1C(=O)/C=C/c1ccc(F)cc1	-4.9	6.1	0.9	0.3	-5.8	-2.4%
COc1ccccc1N(Cc1ccccc1)S(=O)(=O)c1cccc(C(=O)NCC2CCCO2)c1 (stereo unspecified)	-0.1	-5.7	-0.9	-0.4	-6.1	0.0%
COc1ccc(OC)c(C(=O)c2ccccn2)c1	1.1	1.7	13.9	0.3	-6.9	0.6%
COCCCNC(=O)c1ccccc1-c1cc(C)no1	-2.8	6.7	3.5	-0.3	-4.2	-0.9%
Cc1ccnc(NS(=O)(=O)c2ccc(NC(=O)CSc3nc(-c4ccccc4)cc(=O)[nH]3)cc2)n1	-3.7	-6.4	-8.5	0.1	-7.3	1.5%
COCc1c(C(=O)OCC(=O)NCCN2C(=O)CSC2=O)oc2ccccc12	0.3	9.1	7.6	0.0	-19.1	-2.0%
COC(=O)CC1(c2cccc3ccccc23)C(=O)c2ccccc2C1=O	-2.3	-4.5	-1.0	1.5	-0.5	4.2%
Cn1c(N)c(C(=O)COC(=O)/C=C/c2ccc(OC(F)F)cc2)c(=O)n(C)c1=O	10.0	-2.4	.	1.3	-5.4	5.1%
S=C(Nc1ccccc1)Nc1ccc(Cl)cc1Cl	-0.4	4.4	-0.9	0.2	-8.3	1.9%
CCc1nc2c(OCc3ccc(S(C)(=O)=O)cc3)cccn2c1N(C)C(=O)c1ccccc1F	3.3	3.8	0.0	0.6	-1.1	-0.5%
CC(C)Cc1n[nH]c(=O)c2c1nnn2Cc1ccccc1F	1.1	4.4	1.0	1.2	1.7	0.6%
Cc1nn(CCCC(=O)NCc2ccc(Cl)cc2)c(C)c1[N+](=O)[O-]	-4.6	4.5	-14.2	0.8	-13.9	3.6%
N#CC(C#SN)=C1CCCCC1	1.1	-0.1	-1.5	-0.5	4.2	-0.2%
Cc1nn(CC(C)C)c(Cl)c1C(=O)NCC(C)(C)N1CCOCC1	-2.8	0.3	4.9	-0.5	-6.3	-1.0%
COCCNC(=O)c1ccc(CS(=O)(=O)c2c(Cl)cccc2Cl)o1	0.0	5.1	-1.9	0.9	-4.1	2.0%
Nc1ccc(-c2nc3ccc([N+](=O)[O-])cc3[nH]2)cc1	-3.5	-26.7	-16.2	-0.4	-4.6	2.3%
O=C(NCc1cccnc1)c1cc(C2CCCCN2C(=O)OCc2ccccc2)on1 (stereo unspecified)	-3.9	9.6	0.0	-1.0	-6.3	0.5%
Cc1cccc(NC(=O)C2CC(=O)N(c3ccccc3)C2)c1C (stereo unspecified)	-1.0	14.4	3.5	0.4	-19.9	2.5%
COc1ccccc1C(C)NS(=O)(=O)c1ccc(Cl)nc1 (stereo unspecified)	-4.0	0.4	1.3	0.7	3.9	-0.3%
O=C(NCCN1CCOCC1)c1cc(-c2cccc(Cl)c2)on1	-3.3	-4.1	5.5	-0.2	-14.6	1.0%
CCc1ccc(NC(=S)N(Cc2ccc(Cl)cc2)Cc2ccc(C(=O)O)cc2)cc1	-0.5	-0.9	0.9	-0.1	-10.4	0.5%
COc1ccc(C(C)C)cc1S(=O)(=O)N1CCN(c2ccccc2)CC1	-4.0	-12.6	-2.1	1.3	-0.3	2.9%
CC(=O)OC(C(=O)Nc1ccccc1)C(C)S(=O)(=O)c1ccccc1 (stereo unspecified)	-13.3	-6.7	-0.2	4.4	-7.6	-1.1%
CC(C)NC(=O)CN(C(=O)CCC(=O)Nc1nccs1)c1ccc(C(C)C)cc1	0.5	18.4	7.0	0.4	-0.6	1.5%
Cc1cccc(N2CCN(C(=S)NCc3ccco3)CC2)c1C	-3.4	-18.7	-21.0	0.0	-14.2	3.1%
O=S(=O)(NCc1nnc2c(C(F)(F)F)cc(Cl)cn12)c1ccccc1	-4.4	4.8	.	-0.2	-2.7	-0.6%
CC(C)c1csc(CN2CCN(Cc3ccc(F)cc3)C(CCO)C2)n1 (stereo unspecified)	1.8	15.1	4.3	-0.5	-10.3	0.7%
NC(=O)Cn1cc(/C=N\NS(=O)(=O)c2ccc(Cl)cc2)c2ccccc21	0.6	0.6	-21.7	0.5	-4.3	3.4%
CCOc1ccc2nc(NC(=O)CN3C(=O)C4CCCCC4C3=O)sc2c1 (stereo unspecified)	0.7	-9.6	-3.2	1.8	14.6	-1.0%
O=C(NS(=O)(=O)c1ccccc1)c1ccccc1	-0.6	6.7	3.8	-0.1	-4.9	.
CCOc1ccc(/C=C/C(=O)N(C)CC(=O)Nc2cccc(F)c2)cc1OCC	0.6	0.7	5.8	3.8	-4.5	9.6%
CCCCSc1nc2sc3c(c2c(=O)n1-c1ccc(OC)cc1)CCN(C)C3	-2.4	-10.6	-1.1	0.9	-8.2	25.3%
O=C(CC1C(=O)NCCN1C(=O)Nc1ccc(F)cc1F)Nc1cc(Cl)ccc1Cl (stereo unspecified)	-2.3	6.3	3.5	0.6	-1.0	1.2%
C=CCn1c(SCC(=O)NCC2CCCO2)nnc1C1CCCCC1 (stereo unspecified)	-2.0	-1.2	1.0	5.1	-9.8	-2.9%
CC(C)(C)c1nnc(SCC(=O)Nc2ccc(N3CCCCC3)cc2)n1N	1.7	-14.0	?	-0.2	0.3	0.1%
CCOC(=O)N1CCN(CC(=O)Nc2ccc(C)c(Br)c2)CC1	-6.3	0.4	2.4	-0.5	-10.8	-1.2%
O=C(Nc1ccc([N+](=O)[O-])cn1)c1cc(-c2cccc(Cl)c2)nc2ccccc12	0.3	5.3	6.6	2.0	-20.5	4.0%

Gathered by group, the entries above with a cyano group.
SMILES	D2 ag	Six1-Eya2 blk	CtBP-E1A blk	TRPML1 ag	D2 PAM	PINK1 modulator
N#Cc1cccc(-c2csc(C(O)(c3ccccc3)C(F)(F)F)n2)c1 (stereo unspecified)	-1.2	-1.6	6.4	-0.2	-3.9	?
N#CC(C#SN)=C1CCCCC1	1.1	-0.1	-1.5	-0.5	4.2	-0.2%

Sorted by count of non-hydrogen atoms (highest first): part of the list above.
SMILES	D2 ag	Six1-Eya2 blk	CtBP-E1A blk	TRPML1 ag	D2 PAM	PINK1 modulator
CCOc1ccc(/C=C/C(=O)N(C)CC(=O)Nc2cccc(F)c2)cc1OCC	0.6	0.7	5.8	3.8	-4.5	9.6%
CCOc1ccc2nc(NC(=O)CN3C(=O)C4CCCCC4C3=O)sc2c1 (stereo unspecified)	0.7	-9.6	-3.2	1.8	14.6	-1.0%
NC(=O)Cn1cc(/C=N\NS(=O)(=O)c2ccc(Cl)cc2)c2ccccc21	0.6	0.6	-21.7	0.5	-4.3	3.4%
C=CCn1c(SCC(=O)NCC2CCCO2)nnc1C1CCCCC1 (stereo unspecified)	-2.0	-1.2	1.0	5.1	-9.8	-2.9%
O=C(NS(=O)(=O)c1ccccc1)c1ccccc1	-0.6	6.7	3.8	-0.1	-4.9	.

Other compounds:
SMILES	D2 ag	Six1-Eya2 blk	CtBP-E1A blk	TRPML1 ag	D2 PAM	PINK1 modulator
COc1ccc(O)c(/C=N/NC(=O)CCC(=O)Nc2ccc(F)cc2)c1	-1.2	?	4.9	-1.5	-8.2	3.2%
O=C(CN1CCN(Cc2ccccc2)CC1)N/N=C\C=C/c1ccco1	-3.1	0.0	-14.9	-0.1	0.9	-2.9%
Cc1ccc(S(=O)(=O)N(CC(=O)N2CCOCC2)c2ccccc2F)cc1	5.2	-0.5	8.3	-0.5	-2.8	-2.4%
Cn1nc(C(=O)NNC(=O)C(CCC(N)=O)NS(=O)(=O)c2ccc(Cl)cc2)c2ccccc2c1=O (stereo unspecified)	0.4	2.6	-3.9	1.0	-0.9	0.2%
CC(=O)c1sc2nc(CSc3nncn3C)[nH]c(=O)c2c1C	0.0	-7.0	0.0	1.3	11.6	0.9%
COc1ccc(C(C(=O)NC2CCCCC2)N(C(=O)c2sc(C)nc2C)c2ccc(OC)cc2)cc1 (stereo unspecified)	-1.7	1.9	3.2	-0.2	-2.7	3.0%[38.3 µM]

Source: PubChem (National Center for Advancing Translational Sciences (NCATS))
